GLA inh pH 4.5 – inhibitors of human alpha-galactosidase A at pH 4.5 | P06280 | purified enzyme, 4-MU-alpha-Gal fluorescence, pH 4.5 | activity change, negative = inhibition, % at 105 µM | 230,000 tested, under 10 active | AID 1467; inconclusive = small, poorly fitted or top-dose-only inhibition, or a rising curve; inactive = flat fitted curve, though single readings scatter; no compound was filed as active;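 further: 0% = full activity with enzyme and -100% = basal without enzyme; dose as in the result columns while the protocol names 77 µM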
Target sequence (P06280 whole entry, looked up): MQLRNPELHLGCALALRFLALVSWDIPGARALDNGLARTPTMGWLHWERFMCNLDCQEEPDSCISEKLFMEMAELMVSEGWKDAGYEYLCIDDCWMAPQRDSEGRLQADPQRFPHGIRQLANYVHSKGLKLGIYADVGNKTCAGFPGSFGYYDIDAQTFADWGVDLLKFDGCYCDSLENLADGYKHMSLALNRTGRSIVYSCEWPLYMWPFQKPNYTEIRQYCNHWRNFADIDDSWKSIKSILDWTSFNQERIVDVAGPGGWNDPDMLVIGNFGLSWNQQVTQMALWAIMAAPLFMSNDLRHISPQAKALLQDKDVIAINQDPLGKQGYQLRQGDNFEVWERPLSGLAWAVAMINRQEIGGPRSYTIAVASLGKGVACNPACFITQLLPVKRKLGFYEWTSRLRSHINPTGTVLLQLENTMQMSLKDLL
miR-21 FLuc – raises the signal of a miR-21 reporter | HeLa miR-21 FLuc reporter, luciferase, 48 h | Potency, µM (series often up to 38.3 µM), for the others: top-dose reporter change, positive = more light | 340,000 tested, under 10 active; active = well fitted rising curve with a large enough effect; inconclusive = small, poorly fitted or top-dose-only effect; inactive = no such curve, though single readings can be large or run the other way;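 further: % of control where 0% means no effect; miR-21 action dims this reporter so a rising signal means less miR-21 action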
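Using DMEM plus 10% FBS, HeLa miR-21-FLuc cells are incubated with test compounds (final up to about 40uM) for 48 hours; firefly luciferase signal is then imaged following reagent-mediated lysis.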
Rango release inh – prevents RanGTP from dissociating the Rango-importin beta complex; O95149+P62826; Biochemical FRET Rango-importin beta, RanGTP-induced dissociation; Potency, µM (series often up to 46.1 µM), for inactives: at the top dose activity change, negative = inhibition; actives 0.071% (n = 340,000); AID 540253; active means falling FRET ratio curve, often poorly fitted, with flat reads before Ran was added; inconclusive means other falling curves, or compound fluorescence or quenching; inactive means flat or rising ratio curve;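 further: potency means the concentration at half of the fitted maximal effect; % of control where 0% means no effect; nearly all actives have a fitted effect of over 45% in size; -100% = wells without RanGTP and RCC1; the record marks most hits as doubtful in a second field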
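Rango (0.1 uM)–importin beta (0.25 uM) complex; RanGTP-RCC1 trigger; 45 min RT; CFP/YFP FRET read.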
Rango complex inh – prevents formation of the Rango-importin beta complex; Q14974; Rango CFP/YFP FRET sensor + importin beta, 45 min; Potency, µM (series often up to 92.2 µM), without a hit: at the highest dose inhibition of complex formation; actives 0.031% (n = 340,000); AID 540263; active = rising FRET ratio curve, often small or poorly fitted; inconclusive = mostly compound fluorescence or quenching in the first reads; inactive = flat curves in all reads;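 further: potency means the concentration at half of the fitted maximal effect; 0% = DMSO wells and 100% = buffer wells lacking importin beta; nearly all actives have a fitted effect of over 15% in size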
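FRET biosensor Rango (snurportin 1 IBB between N-terminal EYFP and C-terminal Cerulean), 50 nM in PBS/1 mM DTT/0.02% Tween-20/0.1% BSA, preincubated 5 min RT with compound; 0.125 microM importin beta added, 45 min RT, CFP/YFP FRET ratio read.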
The depositor's hits bear a star; ? = inconclusive; · = no result given; & = joins results of further samples; [ ] = remark or other dose.

structure,GLA inh pH 4.5,miR-21 FLuc,Rango release inh,Rango complex inh
COc1cccc2cc(C(=O)N3CCN(c4ncccn4)CC3)c(=O)oc12,-4.8,-10.0%,-0.3%,-0.7%
CCc1ccc(NC(=S)NCC2CCCN2CC)cc1 (stereo unspecified),4.6,-16.4%,-5.7%,-0.7%
O=C1CSC(c2ccc(F)cc2)N1c1nc2ccccc2s1 (stereo unspecified),4.7,-19.3%,-3.8%,?
CCOc1ccc(C(=O)CCC(=O)NN2C(=O)NC3(CCCCC3)C2=O)cc1,·,·,?,?
CC(OC(=O)C12CCC(=O)N1c1ccccc1S2)C(=O)Nc1cccc(Cl)c1 (stereo unspecified),·,·,12.1%,-0.5%
Oc1ccc(/C=N/Nc2nccnc2Cl)c(O)c1,2.1,-40.5%,1.7%,-5.2%
CCn1cc(C(=O)NCC(C)C)c(=O)c2cc(F)c(N3CCN(C)CC3)cc21,-20.7,-3.6%,9.1%,0.2%
CCOc1ccc(-c2cc(C(=O)NN)[nH]n2)cc1,-1.3,-43.4%,5.3%,-0.6%
CC(C)(C)N1CC(c2nc3ccccc3n2CCOc2ccccc2)CC1=O (stereo unspecified),-7.7,-8.9%,-8.4%,6.2%
C#CCOCCOCCOCCNc1nc(N2CCN(C(=O)CCCCCCCCCCNC(=O)Cn3cc(C[C@@H](C)O)nn3)CC2)nc(N2CCN(C(=O)CCCCCCCCCCNC(=O)[C@@H]([C@H](C)O)n3cc(C)nn3)CC2)n1,·,·,-15.4%,-1.0%
COc1ccc(Cl)cc1C(=O)Nc1ccc2c(c1)OCCO2,·,-57.0%,-5.5%,-6.9%
COc1ccccc1OCCSc1ncnc2nc[nH]c12,-1.5,-8.6%,-0.7%,-3.3%
Cc1ccc(S(=O)(=O)CCC(=O)OC(C)C(=O)N2CCc3ccccc32)cc1 (stereo unspecified),·,·,1.0%,-2.8%
CCOC(=O)C1(CC)NC(c2cccc(F)c2)C2C(=O)N(CC)C(=O)C21 (stereo unspecified),-7.7,-1.0%,0.9%,-1.7%
COc1cc(C)c(CN2CCCCC2CO)cc1C (stereo unspecified),2.6,-0.5%,5.5%,-0.3%
O=C(CN1CCN(C(=O)c2cccc(S(=O)(=O)N3CCCC3)c2)CC1)Nc1ccccc1Cl,·,·,-9.7%,-2.2%
COC(=O)C(C(=O)OC)c1ccc(NC(=O)c2cccc(Cl)c2)cc1,7.4,-29.3%,5.7%,-1.9%
COc1ccc(S(=O)(=O)NCCSCc2ccc(Cl)cc2)cc1NC(C)=O,·,·,1.4%,-0.7%
O=C(NC1CCCCC1)N(Cc1cc2cc3c(cc2[nH]c1=O)OCCO3)CC1CCCO1 (stereo unspecified),4.5,0.6%,11.8%,3.1%
O=C(Nc1ccccc1-c1ccccc1)c1cccc([N+](=O)[O-])c1,11.0,-22.7%,1.0%,0.7%
COc1ccc(C2NS(=O)(=O)OCC2C)cc1 (stereo unspecified),·,1.1%,-18.9%,-2.4%
O=C1CC(c2ccccc2)CC(O)=C1C=Nc1ccc(O)cc1 (stereo unspecified),4.7,1.4%,-15.4%,-0.7%
COc1ccc(CC(=O)NNc2ncnc3c2cnn3C)cc1OC,-11.5,-6.7%,-10.3%,-0.2%
O=C(O)c1ccccc1-c1ccccc1C(=O)Nc1ccc(OC(F)(F)F)cc1,·,5.9%,4.9%,2.7%

Shown with values under each structure: 6 of the compounds above.
Under each structure: GLA inh pH 4.5 | miR-21 FLuc | Rango release inh | Rango complex inh
CCOC(=O)C1(CC)NC(c2cccc(F)c2)C2C(=O)N(CC)C(=O)C21 (stereo unspecified)
  -7.7 | -1.0% | 0.9% | -1.7%
COc1cc(C)c(CN2CCCCC2CO)cc1C (stereo unspecified)
  2.6 | -0.5% | 5.5% | -0.3%
O=C(CN1CCN(C(=O)c2cccc(S(=O)(=O)N3CCCC3)c2)CC1)Nc1ccccc1Cl
  · | · | -9.7% | -2.2%
COC(=O)C(C(=O)OC)c1ccc(NC(=O)c2cccc(Cl)c2)cc1
  7.4 | -29.3% | 5.7% | -1.9%
COc1ccc(S(=O)(=O)NCCSCc2ccc(Cl)cc2)cc1NC(C)=O
  · | · | 1.4% | -0.7%
O=C(NC1CCCCC1)N(Cc1cc2cc3c(cc2[nH]c1=O)OCCO3)CC1CCCO1 (stereo unspecified)
  4.5 | 0.6% | 11.8% | 3.1%

More records.
structure,GLA inh pH 4.5,miR-21 FLuc,Rango release inh,Rango complex inh
COc1ccc(N2CCN(C(=O)CCNS(=O)(=O)c3cc(Br)cnc3N)CC2)cc1,·,2.6%,-13.3%,0.1%
Cc1c(C(=O)NCc2cccnc2)oc2ccc(S(=O)(=O)N3CC(C)CC(C)C3)cc12 (stereo unspecified),6.2,-4.4%,-12.6%,5.9%
C=CCn1c(Oc2cccc(C)c2)nc2c1c(=O)n(C)c(=O)n2C,-9.2,8.3%,0.0%,-2.5%
C#CCn1c(CCNC(=O)c2ccco2)nc2ccccc21,·,0.7%,1.3%,-4.3%
Cc1ccc(Nc2nc3nonc3nc2N(C)C)cc1,-1.3,-0.8%,?,1.2%
COc1cc2cc(Br)cc(Br)c2nc1C,3.8,1.1%,-15.1%,1.9%
COC(=O)c1sc2cc(C(F)(F)F)cnc2c1-c1cccnc1,3.1,-11.3%,17.4%,0.9%
Cn1c(-c2cccc(OCc3ccccc3)c2)nc2c1c(=O)[nH]c(=O)n2Cc1ccccc1,-2.5,1.5%,14.1%,-2.0%
O=C(O)CC(SCC(=O)Nc1ccccc1)C(=O)O (stereo unspecified),-1.8,-0.1%,-1.8%,-2.7%
COc1ccc(S(=O)(=O)N2CCCCC2)cc1NC(=O)C1CC1C (stereo unspecified),·,·,1.7%,-0.6%
CCn1c(NC(=O)C(C)C)c(-c2cccs2)c(=O)c2ccccc21,11.6,1.1%,8.1%,-1.7%
CC(=O)c1c(O)c2cccc3c2n(c1=O)CCC3,·,-0.7%,-8.2%,3.2%
C/C=C(/C)C(=O)Nc1cccc(C2=NOC3(C2)C[C@@H](C(N)=O)N(C(=O)C2(C)CC2)C3)c1 (stereo partly specified),-0.1,-1.3%,21.6%,6.2%
O=C(COC(=O)/C=C/c1cccc([N+](=O)[O-])c1)NCC1CCCO1 (stereo unspecified),-7.1,-10.5%,4.6%,-1.3%
O=C(C1=NN[C@@H]2C(=O)N(c3ccccc3C(F)(F)F)C(=O)[C@H]12)c1cnccn1,-3.1,-4.6%,-11.8%,0.1%
CCOc1ccc2nc(SCC(=O)NC(=O)NCc3ccco3)sc2c1,-10.0,-5.5%,-3.1%,-1.6%
CCOC(=O)c1sc2nc(SCC(=O)NCc3ccco3)n(Cc3ccccc3)c(=O)c2c1C,1.1,-0.6%,-7.2%,-4.3%
CN(C)N1C(=O)CC(NNC(=O)c2ccncc2)C1=O (stereo unspecified),-7.4,-5.4%,11.5%,1.1%
CCCC(=O)Nc1ccc(NC(=O)C23CC4CC(CC(C4)C2)C3)cn1,-5.8,-68.3%,1.7%,3.7%
O=C(CC1SC(=O)N(c2ccccc2)C1=O)Nc1ccccc1 (stereo unspecified),1.7,-26.1%,-10.5%,0.4%
Cc1cccc(N2CCN(C(c3ccc(N(C)C)cc3)c3nnnn3C(C)(C)C)CC2)c1C (stereo unspecified),3.6,0.9%,-3.0%,-0.5%
CC(=O)Cn1c(C(F)(F)F)nc2ccccc21,-2.1,0.9%,1.7%,-2.0%
N#CC1=C(N)C2=C(N3CCCCC3)CCCC2C1(C#N)C#N (stereo unspecified),-2.2,0.5%,?,?
CC12CCC(=O)C=C1CCC1C2CCC2(C)C(C(=O)CO)CC(O)C12 (stereo unspecified),·,·,-10.8%,-3.2%
COC(=O)c1sccc1NC(=O)c1cc(OC)cc(OC)c1,-5.8,-3.1%,3.7%,3.0%
N#CC1(Nc2ccc3ccccc3c2)CCCC1,·,·,5.7%,-0.3%
CNc1nc(Cl)nc2c1ncn2-c1ccccc1,·,·,20.0%,-2.9%
O=C(O)c1ccc(CSc2nnc(-c3ccc(Cl)cc3)o2)cc1,·,3.6%,-0.9%,-3.2%
Cc1ccccc1CC(=O)NCC1CCCCC1,·,-19.0%,-6.4%,3.0%
CN1/C(=C/C(=O)C2CCC2)Sc2ccccc21,-1.1,-35.6%,1.1%,-3.0%
COc1ccc(-c2ccc([C@H]3[C@@H]4C=CCC[C@@]4(C)C(=O)N3Cc3ccccc3)c(F)c2)cc1,-9.2,28.9%,-4.7%,-4.4%
COc1cccc(C=NNC(=O)C2CC2)c1,·,·,-2.2%,-2.2%
CCC(NC(=S)NCc1ccc(F)cc1)c1ccc(C(C)C)cc1 (stereo unspecified),·,29.5%,4.3%,-2.7%
COC(=O)C1=C(C)NC(C)=C(C(=O)OC)C1C1CC=CCC1 (stereo unspecified),-0.9,5.4%,5.6%,-1.1%
NC(=O)C1CCN(CCCNC2CC(=O)N(Cc3ccc(N4CCCC4=O)cc3)C2=O)CC1 (stereo unspecified),·,·,-6.6%,5.2%
O=C(O)CCCC(=O)Nc1ccccc1C(=O)N1CCOCC1,1.7[21.1 µM],-1.4%,-8.7%,-3.1%
CC1CCCCC1NC(=O)CO/N=C/c1ccccc1OC(F)F (stereo unspecified),1.7,-7.8%,-1.3%,5.8%
COc1cccc(C(=O)OCC(=O)NC(=O)NC2CCCC2)c1O,-22.2,0.1%,13.2%,1.9%
Cc1ccc(NC(=O)CN2C(=O)CN(C)C2=O)cc1S(=O)(=O)N1CCCCC1,4.0,-1.1%,3.9%,-1.1%
CCN(CC)CC(=O)Nc1c2c(nc3ccccc13)N(C)CC2,·,-4.6%,3.2%,3.2%
CC(C)(C)OC(=O)[C@H](Cc1ccccc1)NC(=O)c1nc[nH]c1C(=O)N1CCc2ccccc2C1,·,8.1%,2.2%,0.1%
CCCCn1c(N)c(N(CC)C(=O)CSCc2c(C)noc2C)c(=O)[nH]c1=O,·,-2.9%,-1.0%,0.0%
COc1ccccc1NC(=O)COC(=O)CC(C)(C)CC1=NS(=O)(=O)c2ccccc2N1,·,13.0%&28.0%,0.3%,0.7%
O=C1CC(C(=O)Nc2ccc(Br)cc2)C2(CCCC2)O1 (stereo unspecified),-5.5,-5.5%,·,·
O=C(CO/N=C/c1cccc([N+](=O)[O-])c1)NC1CCCCC1,1.9,-9.9%,-15.7%,-1.4%
COc1ccc(SCCc2nnc(-c3ccccc3)o2)cc1,·,-14.3%,-3.4%,0.0%
Cc1ccc(C(=O)N2Cc3ccccc3CC2C(=O)O)cc1 (stereo unspecified),4.1,-8.0%,0.2%,0.0%
CNC(=S)Nc1cccc(C(=O)O)c1,17.3,-1.1%,18.9%,-0.3%
Cc1[nH]c2ccc(F)cc2c1CCN(Cc1cccnc1)C(=S)NC(C)(C)C,·,-8.0%,-17.3%,-1.0%
NC(=O)c1c(NC(=O)c2ccc(F)cc2)sc2c1CCC2,·,-41.6%,-11.4%,?
CCCCNC(=O)[C@@](CC)(ONc1ccccc1C(F)(F)F)c1cccc2ccccc12,·,·,3.5%,?
C/C(=N\NC(=O)COc1ccccc1-c1ccccc1)c1ccccn1,-3.5,15.8%,-5.7%,-0.7%
O=C(CNC(=O)c1ccc(Br)cc1)NCC(=O)OCC(=O)c1ccc(F)cc1,·,-0.4%,-2.2%,5.6%
O=C(Nc1c(F)cc(F)cc1Br)c1cc(-c2ccccc2)on1,·,-19.3%,-0.1%,-0.3%
Cc1nc(C)n(C(Oc2ccc(Cl)cc2Cl)C(=O)C(C)(C)C)n1 (stereo unspecified),·,·,29.4%,0.8%
CCCCC(=O)Nc1cc(Cl)ccc1C(=O)O,3.3,-0.6%,-12.6%,-2.5%
CCn1c(COc2ccccc2)nnc1SCC(=O)NCc1ccco1,9.0,4.7%,-6.7%,0.4%
COc1ccc(N2CCN(C(=O)C3CCN(S(=O)(=O)c4ccc5c(c4)oc(=O)n5C)CC3)CC2)cc1,·,3.3%,18.8%,0.5%

A portion of the library; rates above refer to the full screens.
